Screens: PubChem BioAssay, National Center for Advancing Translational Sciences (NCATS)
TRPML1 agonist = human mucolipin-1 channel agonism; activation, % (no concentration beside the values); AID 624414; Q9GZU1; TRPML1-expressing cells, Ca2+ dye fluorescence, FDSS; host cell line not named in the record; reference of the full effect not given here; 0.12% of 410,000 active; in the data active = activation above about 50%; inconclusive = about 30% to 50%; inactive = below about 30%; also: 0% is about no effect; the text of the record puts the active cut at 80%
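Agonist activity was taken from a 110 s kinetic Ca2+ dye read on the FDSS after pinning compounds onto TRPML1-DL cells. The cells were seeded at 1,500/well with Tet inducer, incubated about 16 h, then dye-loaded at room temperature.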
PINK1 modulator = modulators of PINK1 expression | PINK1 immunofluorescence, high-content cytometry, 24 h | Potency, µM (titrated, usually from 76.6 µM), for the others: at the top dose activation (PINK1 increase), most hits filed as activators | 0.2% of 410,000 active; active = well fitted activation curve with a large enough effect; inconclusive = small, poorly fitted or top-dose-only effect; inactive = flat fitted curve, though single readings scatter; cell line not stated here;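 also: potency is read from the fitted curve at half-maximal effect; % of control where 0% means no effect; nearly all actives have a fitted effect of over 65% in size; a mitochondrial uncoupler was the plate control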
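Cells are seeded, rested 12 hours, then given compound at five concentrations or DMSO for 24 hours. After fixation, blocking and antibody staining, PINK1 amount and mitochondrial localization are scored; CCCP serves as control.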
Six1-Eya2 blk = blocks human Six1 binding to Eya2; activity change, % (no concentration beside the values); 0.56% of 360,000 active; AlphaScreen GST-Six1/His-Eya2 binding, biochemical; stronger effect = lower value; control for the full effect not named in the record; Q15475+O00167; in the data active = activity change below about -65%; inconclusive = about -30% to -65%; inactive = above about -30%; also: % is scaled to controls: 0 for no effect and ±100 for the full control effect; compound concentration not given in the record
Target sequence (O00167 whole entry, looked up): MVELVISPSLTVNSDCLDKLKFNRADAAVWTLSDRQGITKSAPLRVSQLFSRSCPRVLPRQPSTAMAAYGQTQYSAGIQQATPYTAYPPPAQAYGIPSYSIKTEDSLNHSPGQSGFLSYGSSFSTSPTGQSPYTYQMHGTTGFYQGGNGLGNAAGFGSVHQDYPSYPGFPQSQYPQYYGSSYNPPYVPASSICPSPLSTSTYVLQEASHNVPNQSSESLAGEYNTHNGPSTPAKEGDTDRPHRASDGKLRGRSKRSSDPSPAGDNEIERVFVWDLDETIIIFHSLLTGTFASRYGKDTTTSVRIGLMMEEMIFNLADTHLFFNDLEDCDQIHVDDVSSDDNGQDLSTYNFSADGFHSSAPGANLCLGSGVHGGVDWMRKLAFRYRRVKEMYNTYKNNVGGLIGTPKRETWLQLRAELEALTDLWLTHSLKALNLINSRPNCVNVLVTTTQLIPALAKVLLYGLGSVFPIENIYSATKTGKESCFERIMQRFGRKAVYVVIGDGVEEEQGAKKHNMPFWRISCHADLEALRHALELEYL
Target sequence (Q15475 whole entry, looked up): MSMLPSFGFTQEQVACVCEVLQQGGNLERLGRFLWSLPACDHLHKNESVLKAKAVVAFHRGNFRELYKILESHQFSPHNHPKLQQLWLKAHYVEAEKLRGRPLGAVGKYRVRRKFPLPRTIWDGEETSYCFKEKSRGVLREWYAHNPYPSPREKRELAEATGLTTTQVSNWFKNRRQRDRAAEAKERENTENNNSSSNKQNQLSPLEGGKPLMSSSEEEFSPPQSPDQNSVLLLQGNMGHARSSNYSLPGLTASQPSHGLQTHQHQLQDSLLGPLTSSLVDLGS
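Six1/Eya2 binding was read as AlphaScreen signal after compounds were pinned into GST-Six1 plus His-tagged Eya2 (5X stock 250/500 nM) in pH 8.0 Tris/NaCl/TCEP buffer, beads added, then incubated 1 h, 37 C, dark.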
CtBP-E1A blk = inhibitors of CtBP/E1A interaction; AlphaScreen GST-E1A/His-CtBP binding, 1536-well; stronger effect = lower value; control for the full effect not named in the record; activity change, % (no concentration beside the values); 0.49% of 340,000 active; AID 651724; in the data active means activity change below about -65%; inconclusive means about -30% to -65%; inactive means above about -30%; also: % is scaled to controls: 0 for no effect and ±100 for the full control effect; compound concentration not given in the record
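AlphaScreen with 125 nM GST-E1A and 125 nM His-CtBP (5X stocks) in Tris pH 8.0, 300 mM NaCl, BSA, Tween 20, TCEP. Compounds preincubated 2 h at 37 deg C, then glutathione donor/nickel acceptor beads added for 1 h at 37 deg C in dark.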
D2 ag = activates the human D2 dopamine receptor. P14416. DiscoveRx PathHunter D2 beta-arrestin, luminescence, 90 min; 100% = 57 uM dopamine signal. activation, % (concentration not given with the values). 0.084% of 360,000 active; in the data active = activation above about 40%; inconclusive = about 15% to 40%; inactive = below about 15%; also: compound concentration not given in the record; the text of the record calls up to 30% inactive
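DiscoveRx PathHunter D2 beta-arrestin cells (2,100/well) attached overnight, then compound-stimulated 90 min at 37 C in HBSS/10 mM HEPES/0.1% Tween-20 buffer; beta-galactosidase complementation read by luminescence after 1 h at ambient temperature. Dopamine 57 uM final (EC100) as control.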
D2 potentiator = potentiates the human D2 dopamine receptor allosterically | P14416 | DiscoveRx D2 beta-arrestin cells, luminescence, 90 min; 100% = 57 uM dopamine signal | potentiation, % (concentration not given with the values) | 0.23% of 360,000 active | AID 624464; active = potentiation of 50% or more; inconclusive = 30% to 50%; inactive = 30% or less;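 also: compound concentration not given in the record; tested on top of an EC20 dose of dopamine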
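D2 cells co-treated with compound plus 50 nM dopamine (EC20) for 90 min at 37 deg C to detect potentiation. Beta-arrestin recruitment was read as enzyme-fragment luminescence after 1 h at ambient temperature. Full response was set by 57 uM dopamine.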
The depositor's hits bear a star; ? = inconclusive; . = not tested or not shown; [ ] = remark or other dose.

canonical_smiles	TRPML1 agonist	PINK1 modulator	Six1-Eya2 blk	CtBP-E1A blk	D2 ag	D2 potentiator
COc1ccc(CCc2nnc(CCC(=O)NCc3cnn(-c4ccccc4C)c3)o2)cc1	2.2	1.1%	2	0	-2.6	-2
CCOC(=O)C(=O)C1=CN(Cc2ccccc2)C=C(C#N)C1	0.8	-1.1%	-2	2	-2.9	-9
COc1cc2c(c(OC)c1)C(c1cccc(OC)c1OC)CC(=O)N2 (stereo not drawn)	0.2	5.9%	1	-2	-5.0	-2
Cc1ccc(OCC(=O)Nc2ccc3c(c2)C(=O)N(CCC(=O)O)C3=O)cc1	0.5	3.7%	-1	-2	-1.7	0
CCOC(=O)c1c(C)n(-c2ccc(OC)cc2)c2ccc(O)c(CN(C)C)c12	.	0.8%	-15	-18	-2.1	-21
Cc1c(S(=O)(=O)Nc2ccc3c(c2)OCCO3)cnn1C	0.2	0.5%	1	3	-4.7	-5
Cc1cccc(-n2nnnc2SCn2nnc3ccccc3c2=O)c1	-0.6	11%[38.3 µM]	8	3	-1.2	-10
CCCN1C(=O)/C(=C/c2ccc(C)s2)NC1=S	1.8	1.5%	-9	-16	-1.7	-2
Cc1cc(-n2c(C)cc(C(=O)CN3C(=O)NC4(CCCCC4C)C3=O)c2C)no1 (stereo not drawn)	0.2	-2.3%[38.3 µM]	-7	12	-0.6	5
Cc1ccc(COc2ccc(Br)cc2/C=N/O)cc1	0.4	6.8%	-1	7	-5.1	-13
CN1CCN(C(=O)c2cn(-c3ccccc3)nc2-c2cccnc2)CC1	0.7	0.0%	29	0	1.5	-16
O=C(O)CCC(=O)Nc1ccc(OCC(=O)O)cc1	-0.9	-4.1%	7	-6	1.1	0
COc1nc(-c2ccncc2)nc2ccccc12	-0.7	-0.5%	-2	-2	-2.6	20
Cc1ccc(C(CNC(=O)Nc2ccccc2)N2CCN(C)CC2)cc1 (stereo not drawn)	-0.5	0.7%	-7	-12	-3.9	-31
Cc1ccnc(SCCn2c(N3CCC(C)CC3)nc3c2c(=O)n(C)c(=O)n3C)n1	-0.3	?	2	2	-0.7	4
CS(=O)(=O)N(CC(=O)N/N=C/c1cc2c(cc1Br)OCO2)c1ccccc1Br	-1.0	-0.2%	-19	-18	-4.3	1
CCSc1ccc(-c2cc(NC=O)c3ncc(-c4cccc(C(=O)N(C)C)c4)n3c2)cc1	1.4	-1.4%	-12	-17	-2.3	-16
CCOc1ccccc1OCC(=O)NNC(=O)Cn1cnc2c1c(=O)n(C)c(=O)n2C	-0.4	0.0%	-5	3	-0.9	-3
COc1cc(C(=O)O)ccc1OCC(=O)N1CCOCC1	-0.3	0.8%	6	4	0.4	-9
COc1ccc(OC)c(NC(=O)Cc2csc(NC(=O)Nc3ccccc3OC)n2)c1	1.4	-2.9%	-11	-12	5.6	-9
Cc1c(C(=O)N/N=C/c2ccc(-c3ccccc3[N+](=O)[O-])o2)sc(N)c1C#N	0.2	4.6%	?	0	3.8	3
Cc1c(Cl)cccc1NC(=O)Nc1ccc(C(N)=O)cc1	0.1	5.3%	-6	6	-2.9	-6
O=C(CSc1nc2ccccc2c(=O)[nH]1)Nc1cccc([N+](=O)[O-])c1	2.1	?	10	4	1.9	-20
CCCS/C(N)=N/N=C/c1cc(C)ccc1O	-0.6	-3.1%	-7	-23	-0.5	-5
C=CCc1ccccc1OCC(O)CN1CCN(c2ccccc2F)CC1 (stereo not drawn)	1.4	14%	-6	1	1.5	-37
CN(Cc1ccccc1)S(=O)(=O)c1ccc2[nH]c(=O)ccc2c1	-0.5	2.8%	-7	-5	-5.2	-7
COc1ccc(Cc2n[nH]c(=O)c3ccccc23)cc1OC	0.0	1.2%	-9	-15	-3.0	-7
Cc1cccc(C=Nc2ccccc2C(N)=O)c1	-0.5	12%[38.3 µM]	5	5	-3.2	-10
COc1ccc(/C=C/C(=O)OCC(=O)NCc2ccccc2)cc1OC	0.5	7.1%	-3	-16	-0.7	-1
COCC1CCN(C(=O)C2CCC(=O)N(C3CCCCCC3)C2)CC1 (stereo not drawn)	0.4	-1.1%	4	-9	0.1	3
CC(c1ccccc1)N1CNc2c(c(=O)n(C)c(=O)n2C)C1 (stereo not drawn)	-0.9	-0.1%	-3	-3	-1.9	-14
Cc1ccc(NC(=O)Cc2n[nH]c(=S)n2C)cc1	-0.2	0.7%	-2	4	?	-6
COCc1c(C(=O)NC(C)c2ccc(S(N)(=O)=O)cc2)oc2ccccc12 (stereo not drawn)	1.9	2.8%	4	2	4.7	2
Brc1cccc(C2CC(c3ccccc3)n3nnnc3N2)c1 (stereo not drawn)	0.0	0.9%	-1	-1	-0.1	4
CCN(CC)C(=O)C1=C(C)N(CCCOC)C(=O)C(CC(=O)NCCc2ccccn2)C1 (stereo not drawn)	0.2	1.1%	6	-18	-7.9	3
COC(=O)[C@]12CCCCC=C1N(Cc1ccc(Cl)cc1Cl)C(=O)[C@H](CC(=O)NCc1ccccc1)C2	-0.3	2.5%	0	-2	.	.
Cc1cc(C)cc(C(O)c2ncc(-c3ccccc3C(F)(F)F)[nH]2)c1 (stereo not drawn)	-0.9	3.2%	-8	-2	-2.2	-6
C/C(=N\N=C(/C)c1cccc(N)c1)c1cccc(N)c1	0.0	0.5%	-5	-4	2.4	-5
CCOC(=O)C1(Cc2ccccc2C(F)(F)F)CCN(C(C)COC)CC1 (stereo not drawn)	0.1	0.8%	-2	-9	0.4	-26
CS(=O)(=O)N(CC(=O)NCc1ccccc1Cl)c1cccc([N+](=O)[O-])c1	3.7	-1.4%	3	.	-5.8	-17

Taken from above.
COc1ccc(/C=C/C(=O)OCC(=O)NCc2ccccc2)cc1OC @ D2 potentiator: -1
O=C(CSc1nc2ccccc2c(=O)[nH]1)Nc1cccc([N+](=O)[O-])c1 @ TRPML1 agonist: 2.1
CCOC(=O)C1(Cc2ccccc2C(F)(F)F)CCN(C(C)COC)CC1 (stereo not drawn) @ D2 potentiator: -26

Additional records follow:
canonical_smiles	TRPML1 agonist	PINK1 modulator	Six1-Eya2 blk	CtBP-E1A blk	D2 ag	D2 potentiator
CN(Cc1ccccc1)C(=O)COc1cc(Cl)ccc1Cl	-0.7	-0.4%	7	9	-6.7	-2
CCC(C)[C@H](NC(=O)C1CC(=O)N(c2ccc3c(c2)OCO3)C1)C(=O)NC1CCCCC1 (stereo partly drawn)	0.5	3.0%	2	.	0.0	-5
COc1ccccc1-c1sc2ccccc2c1-c1ccc(Br)nc1	1.1	4.3%	-1	2	1.4	-4
O=c1[nH]c2ccccc2nc1-c1ccccc1	0.0	1.4%	21	-4	-1.7	-5
O=C(Nc1cccc(-c2nc3ccccc3s2)c1)c1cccs1	0.4	0.6%	-11	-16	-1.0	-13
CCOC(=O)C1CCCN1C(=O)c1ccc(OC)c(Br)c1 (stereo not drawn)	-0.4	-0.1%	8	-2	-2.3	-3
CSc1ncnc2c1ncn2CCCNCC1CCCO1 (stereo not drawn)	.	0.2%	-3	-27	1.3	.
CSCC(=O)NC1CCCN(C2Cc3ccccc3C2)C1 (stereo not drawn)	0.0	16%	0	1	-2.8	-2
O=C(Nc1ccnn1C1CCN(Cc2cccnc2)CC1)c1ccccc1Cl	0.3	4.7%	6	12	-2.8	7
COc1ccc(NC(C)=O)cc1C#N	-0.7	0.3%	8	11	-4.6	-5
CCCCCNC(=O)c1c[nH]c2ccc(S(=O)(=O)N3CCC4(CC3)OCCO4)cc2c1=O	-0.1	0.9%	-5	-20	-0.8	-2
CC(=O)N1CCCN(Cc2nc(C3(c4ccc(C)cc4)CCCC3)no2)CC1	-0.3	-0.7%	4	4	-0.5	1
CC(C)c1onc(C(=O)N2CCN(C(c3ccccc3)c3ccccc3)CC2)c1[N+](=O)[O-]	0.2	-3.5%	-9	?	-1.4	-1
O=[N+]([O-])c1ccc(S(=O)(=O)N2CCN(C3CCN(Cc4ccccc4)CC3)CC2)cc1	-0.4	0.3%	-28	-14	3.3	-4
CCn1c(CSc2nc3ccccc3s2)nnc1SCC(N)=O	-0.5	4.0%[38.3 µM]	0	0	-2.8	-1
COc1ccc(NS(=O)(=O)c2cccc(NC(=O)c3cnccn3)c2)cc1Br	0.2	2.3%	-12	0	7.1	2
COc1ccc(C(=O)C2CCCN(C(=O)Cn3nc(C)cc3C)C2)cc1F (stereo not drawn)	.	1.4%	1	1	-3.2	-6
C=CCNC(=O)c1ccc(-c2nc(-c3ccc(Cl)cc3Cl)cs2)cc1	0.6	13%	0	-1	0.9	10
CCOC(=O)C1(C)CCN1C(=O)c1ccc(-c2ccccc2)cc1 (stereo not drawn)	-0.9	1.5%	13	7	9.0	-8
CCN1C(=O)/C(=C\c2nc3ccccc3c(=O)n2-c2ccccc2)c2ccccc21	0.7	3.1%	0	-7	-0.8	6
O=C(O)CCC(=O)Nc1sc2c(c1C(=O)NC1CCCC1)CCCC2	-0.1	-0.5%	-5	-4	0.0	-10
CCCCN(C(=O)c1ccncc1)c1c(N)n(CCC)c(=O)[nH]c1=O	1.2	-1.7%	2	-17	0.1	6
CCCCCCSc1ccc([C@@H]2[C@H]3C(=O)N(C)C(=O)[C@H]3[C@]3(C(=O)OC)CCCCN23)cc1	-0.7	?	-5	-3	-1.8	-40
N#Cc1cnc2c(-c3ccccc3)c(-c3ccccc3)nn2c1N	-0.2	3.0%	-14	0	0.6	-10
COc1ccc(/C=C/c2nc3ccccc3n2Cc2ccc(OC)c(OC)c2)cc1	3.0	0.2%	12	.	-2.1	-13
CC(=O)Nc1ccc(-c2nc3ccc(NC(C)=O)cc3o2)cc1	.	-1.0%	2	0	4.1	-6
CCOc1cc(CNc2ccc3c(c2)CCC3)ccc1O	-0.8	-1.9%	-5	-6	-3.2	-13
CCC(Sc1nc2cc(OC)c(OC)cc2c(=O)n1CCc1ccc(S(N)(=O)=O)cc1)C(=O)NCCOC (stereo not drawn)	0.1	2.6%	-1	-7	5.8	3

Five compounds already listed, sorted by their value in Six1-Eya2 blk, low to high:
mol | Six1-Eya2 blk
N#Cc1cnc2c(-c3ccccc3)c(-c3ccccc3)nn2c1N | -14
CCOc1cc(CNc2ccc3c(c2)CCC3)ccc1O | -5
CCC(Sc1nc2cc(OC)c(OC)cc2c(=O)n1CCc1ccc(S(N)(=O)=O)cc1)C(=O)NCCOC (stereo not drawn) | -1
CC(=O)Nc1ccc(-c2nc3ccc(NC(C)=O)cc3o2)cc1 | 2
COc1ccc(/C=C/c2nc3ccccc3n2Cc2ccc(OC)c(OC)c2)cc1 | 12
